INS promoter inh: TRM-6 insulin promoter activity inhibition; inhibition, % at 2 µM; actives 0.9% (n = 130,000); TRM-6 cells (human fetal islet line), insulin promoter-eGFP reporter, imaging; reporter expression induced with tamoxifen;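 active = inhibition above the mean plus 3 SD, with well images judged a real hit on visual review, cut at about 60% in these data, passing the limit was not always enough; inconclusive = inhibition over the cutoff but images rejected on review; inactive = inhibition not above the cutoff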
RGS16-Gao HTS: RGS16-Galphao interaction regulator (human); actives 0.38% (n = 220,000); binding response (% of control), % at 10 µM; O15492+P09471; bead-based flow cytometry RGS16-Galphao binding, fluorescence; actives lie on both sides;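 active = below 25% or above 175%, edge rows of some plates excepted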;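 also: Galphao activated by GDP with aluminum fluoride before binding; 100% = wells without compound and 0% = beads without RGS; some results beyond the cut were filed as inactive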
Target sequence (O15492 whole entry, looked up): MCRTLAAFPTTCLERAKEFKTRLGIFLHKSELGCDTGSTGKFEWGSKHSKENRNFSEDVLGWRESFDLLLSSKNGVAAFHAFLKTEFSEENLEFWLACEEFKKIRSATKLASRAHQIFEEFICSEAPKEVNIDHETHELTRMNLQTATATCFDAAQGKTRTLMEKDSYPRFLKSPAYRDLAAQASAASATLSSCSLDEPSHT
Target sequence (P09471 whole entry, looked up): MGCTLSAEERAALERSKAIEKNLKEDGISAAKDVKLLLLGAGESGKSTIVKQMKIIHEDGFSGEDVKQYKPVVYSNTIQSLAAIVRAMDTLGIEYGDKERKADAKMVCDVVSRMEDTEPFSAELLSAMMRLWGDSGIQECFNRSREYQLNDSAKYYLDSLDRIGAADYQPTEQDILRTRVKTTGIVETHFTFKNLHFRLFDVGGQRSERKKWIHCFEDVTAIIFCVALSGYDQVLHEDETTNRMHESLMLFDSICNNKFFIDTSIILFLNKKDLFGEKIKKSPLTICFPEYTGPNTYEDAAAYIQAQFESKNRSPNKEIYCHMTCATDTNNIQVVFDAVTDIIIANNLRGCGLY
PKD1 kinase inh: blocks activity of human protein kinase D1; Q15139; PKD1 kinase fluorescence polarization assay; inhibition, %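 (about 10 µM by stock and volumes)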; actives 0.056% (n = 200,000); AID 797;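 active = inhibition of 50% or more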;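 also: controls were vehicle for no effect and a reference inhibitor for full effect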
GALR2 agonist: agonists of human galanin receptor 2 (GALR2); actives 0.48% (n = 140,000); O43603; AID 803; GALR2-expressing cells, agonist activation read-out; activation, %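 (tested at 5 µM)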;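 active = above mean plus 3 SD of all compounds, about 5% in these data, not always enough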;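 also: 0% = vehicle buffer wells and 100% = reference agonist at full effect; tested in CHO reporter cells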
Target sequence (O43603 whole entry, looked up): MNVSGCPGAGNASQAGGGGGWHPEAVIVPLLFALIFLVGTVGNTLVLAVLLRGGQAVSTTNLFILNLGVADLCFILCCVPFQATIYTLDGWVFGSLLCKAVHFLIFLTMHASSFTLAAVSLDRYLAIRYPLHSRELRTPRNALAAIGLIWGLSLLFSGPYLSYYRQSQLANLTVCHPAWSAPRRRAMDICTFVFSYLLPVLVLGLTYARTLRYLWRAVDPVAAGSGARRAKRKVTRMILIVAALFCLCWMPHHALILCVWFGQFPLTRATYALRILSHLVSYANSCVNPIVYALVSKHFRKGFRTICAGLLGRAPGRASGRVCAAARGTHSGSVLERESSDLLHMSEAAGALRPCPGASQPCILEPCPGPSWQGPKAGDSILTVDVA
HSV augment: HSV replication enhancement | HSV replication augmentation in cells, fold increase | maximum fold increase | actives 0.005% (n = 220,000) | AID 1956;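 active = peak rise of 1.5-fold or more in the series; inconclusive = self-fluorescent or not available for retest; tested in PC3 cells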;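 also: first round at 10 µM; read as green reporter fluorescence; hits show the peak of a series up to 25 µM; 1 = signal of infected wells without compound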
INS promoter inh cell count: also measured in INS promoter inh; calls as there; normalized cell count, %; measured here: cell count, toxicity; reference of the scale not given here;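 cells exposed to compound for 48 h; stained nuclei by imaging scaled within each plate; lower means fewer cells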
HSV augment primary fold: second read-out of HSV augment, no call of its own (marks repeat the call); fold increase; compound at 10 µM; measured here: primary screen fold increase 10 uM; tested in PC3 cells;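 GFP signal in the first replicate; 1 = infected wells without compound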
* marks the source's active call; other numbers are inactive results; i = inactive; ? = inconclusive; . = no result given.

SMILES | INS promoter inh | INS promoter inh cell count | RGS16-Gao HTS | PKD1 kinase inh | GALR2 agonist | HSV augment | HSV augment primary fold
O=C1c2ccccc2-c2c1nc1c([n+]2[O-])CCCC1 | . | . | 103.1 | -5.9 | -0.3 | i | 0.91
Cc1c(C#N)c(NC(=O)c2cccc(Cl)c2)n(Cc2ccccc2)c1C | 26.7 | 90.8 | 96.9 | -16.6 | -1.1 | i | 0.96
Cc1cc(C)nc(Sc2nc(Cl)nc(N(c3ccccc3)c3ccccc3)n2)n1 | -10.8 | 133.6 | 102.6 | 2.7 | -1.4 | i | 0.94
O=C(Cn1nnc(-c2ccccc2)n1)N=Nc1c(O)[nH]c2ccccc12 | 29.2 | 137.8 | 66.5 | 2.7 | -0.6 | i | 0.91
O=C(Nc1sccc1C(=O)NCc1ccco1)c1cccnc1 | 27.3 | 185.8 | 106.2 | 1.1 | -4.0 | i | 0.76
CCOC(=O)N1CCC(NC(=O)c2cccn3c(=O)c4cc(Br)ccc4nc23)CC1 | . | . | 98.8 | -12.7 | -0.5 | i | 0.95
O=C1OC(N2CCN(Cc3ccccc3)CC2)c2ccccc21 (stereo unspecified) | 0.0 | 83.7 | . | -0.6 | -4.2 | i | 0.86
Cc1cc(C)nc(NC(N)=NC2CCCCC2)n1 | -43.3 | 130.7 | 101.8 | -0.5 | -0.1 | i | 0.95
Cn1c(Cn2cnc(Cl)c2Cl)nc2ccccc21 | -11.8 | 75.9 | 102.8 | 12.3 | -0.7 | i | 1.04
O=C1c2cnc3nc(SCc4ccccc4)nn3c2CC2c3ccccc3CCN12 (stereo unspecified) | . | . | 98.6 | -17.0 | 0.8 | i | 0.92
Cc1nn(C)c(C)c1S(=O)(=O)N1CCC(C(=O)NC2CCCCC2)CC1 | . | . | 106.7 | -2.1 | -0.8 | i | 1.1
Cc1cc(C)n(-c2ccc(C(=O)Nc3ccccn3)cc2)n1 | 17.6 | 232.5 | 99.0 | -7.2 | -0.9 | i | 1
CCc1c(C)nc2c(Br)cccc2c1SCCC#N | -32.3 | 108.0 | 97.2 | -0.4 | 0.3 | i | 0.96
CCOC(=O)C1CCCN(C(=O)CN2C(=O)c3ccccc3C2=O)C1 (stereo unspecified) | . | . | 102.3 | -3.4 | -1.0 | i | 1.05
Cn1c(-c2cnn(-c3ccccc3)c2N)n[nH]c1=S | . | . | 110.5 | -6.1 | . | i | 0.83
CC1C(=O)CCN(C(C)(C)C)C1C (stereo unspecified) | -5.4 | 100.0 | 104.5 | -2.4 | 0.9 | i | 1
CCOc1ccccc1OCCCC(=O)NC1=NCCS1 | -50.0 | 137.4 | 100.4 | -1.3 | -1.7 | i | 0.923
CC(=O)Nc1ccc(S(=O)(=O)NCC(=O)OCC(=O)N2CCN(c3ccccc3)CC2)cc1 | -92.9 | 42.7 | 21.3* | 2.7 | -1.4 | i | 1.01
O=C(/C=C/c1ccco1)Nc1ccc2c(c1)OCCO2 | 8.3 | 93.5 | 101.5 | -0.5 | . | i | 0.97
CC(=O)N(C)c1ccc(NC(=O)c2ccco2)cc1 | 2.9 | 119.0 | 81.0 | -3.6 | -1.0 | . | .
CS(=O)(=O)NCCC1=CCCCC1 | 25.0 | 83.7 | 100.2 | -7.9 | -0.1 | i | 0.98
COc1ccc(S(=O)(=O)NCC2CCC(C(=O)NCC(OC)OC)CC2)cc1 (stereo unspecified) | . | . | 107.5 | -2.5 | . | i | 1.04
Cc1ccc(-c2nc3c(c(=O)c4ccccc4n3C)c(=O)n2-c2ccc(F)cc2)cc1 | . | . | 92.5 | . | . | i | 0.92
O=C/C=C/c1coc2ccc3ccccc3c2c1=O | . | . | 96.5 | . | . | i | 1.06
C/C(CCN1CCCCc2nc(C)c(C)cc21)=N\O[C@H](C)c1cn([C@H](CO)Cc2ccccc2)nn1 | -23.8 | 88.8 | 100.8 | -0.8 | -1.2 | . | .
COc1ccc(N=C2S/C(=C\c3cc(C)n(C)c3C)C(=O)N2CC(C)C)cc1 | . | . | 80.2 | 11.1 | -1.2 | . | .
CCOc1ccc(C2C=C(c3ccccc3)Nc3nnnn32)cc1 (stereo unspecified) | -33.3 | 130.0 | 101.5 | 5.7 | -3.4 | ? | .
O=C(NCc1ccccc1)c1cc(-c2cccc(O)c2)on1 | . | . | 100.1 | -12.3 | . | i | 1
CCCC(c1nnnn1CCOC)N1CCN(Cc2ccccc2)CC1 (stereo unspecified) | 36.4 | 92.4 | 106.0 | -5.2 | -0.2 | i | 0.76
Cc1cc(-n2c(C)cc(C(=S)N3CCOCC3)c2C)ccc1Br | -5.1 | 73.7 | 102.7 | 1.0 | -1.6 | i | 0.87
COc1ccccc1C1CCN(C(=O)c2cccc([N+](=O)[O-])c2)CC1 | . | . | 81.8 | . | . | i | 1.03
CSCCC(C(=O)OC1CCOC1=O)N1C(=O)c2ccccc2C1=O (stereo unspecified) | -14.3 | 117.0 | 97.1 | 0.1 | . | i | 0.99
O=C(NC(C(=O)N/N=C/c1ccncc1)c1n[nH]c(=O)c2ccccc12)c1ccccc1 (stereo unspecified) | . | . | 99.9 | . | . | i | 1.2
O=C(NCC1COc2ccccc2O1)C1C2C=CC3(CN(Cc4ccccc4Cl)C(=O)C13)O2 (stereo unspecified) | . | . | 80.4 | -8.0 | -0.7 | i | 0.9
CCCCCOc1ccc(C(=O)NCCC(=O)NCCCC(=O)OCC)cc1 | . | . | 97.2 | . | . | i | 0.55
COCCn1c(SCC(=O)Nc2ccc(Cl)c(S(=O)(=O)N(C)C)c2)nc2ccccc21 | -6.7 | 136.3 | 103.8 | 3.6 | -0.5 | i | 0.93
Cc1ccc2cc3cc(C(=O)N4CCN(C(=O)c5ccco5)CC4)sc3nc2c1 | . | . | 96.6 | -17.5 | 0.2 | i | 0.96
CC(=O)Nc1ccc(N2CCN(Cc3ccccc3F)CC2)cc1 | -10.0 | 154.6 | 101.2 | -3.3 | -2.8 | i | 0.63
CC(CN(C(N)=O)c1ccccc1O)C(=O)O (stereo unspecified) | 27.0 | 224.2 | 91.5 | -6.0 | -0.8 | i | 0.92
CCCCc1nnc(NC(=O)C=C(C)C)s1 | 16.9 | 117.5 | 105.0 | -0.2 | -1.0 | i | 0.83

An excerpt from above in order of the HSV augment primary fold value, highest first.
Structure	HSV augment primary fold
O=C/C=C/c1coc2ccc3ccccc3c2c1=O	1.06
COCCn1c(SCC(=O)Nc2ccc(Cl)c(S(=O)(=O)N(C)C)c2)nc2ccccc21	0.93
O=C(NCC1COc2ccccc2O1)C1C2C=CC3(CN(Cc4ccccc4Cl)C(=O)C13)O2 (stereo unspecified)	0.9

(cont.)
SMILES | INS promoter inh | INS promoter inh cell count | RGS16-Gao HTS | PKD1 kinase inh | GALR2 agonist | HSV augment | HSV augment primary fold
Cc1cc(C)nc(SCC(=O)N/N=C/c2cccc([N+](=O)[O-])c2)n1 | . | . | 104.2 | -2.3 | -0.6 | i | 0.83
Oc1ccc2[nH]ccc2c1 | . | . | 97.8 | 0.0 | -2.9 | i | 0.92
CCOC(=O)CCn1nc(-c2ccc(Cl)cc2)cc1N | . | . | 99.0 | -18.4 | 0.1 | i | 0.9
Cc1cccc(C(=O)NC2CC(C)(C)NC(C)(C)C2)c1 | . | . | 112.6 | -8.2 | 3.4 | i | 0.71
Cc1nn(-c2ccccc2)c(C)c1/C=N/NC(=O)c1cc(-c2cccs2)[nH]n1 | -78.6 | 8.5 | 107.6 | 12.5 | 2.8 | i | 0.59
C/C(=N\NC(=S)Nc1cccc(C)c1)c1cc2ccccc2o1 | . | . | 95.4 | 5.3 | . | i | 0.96
O=S(=O)(c1cccc(C(F)(F)F)c1)N1CCN(c2cnccn2)CC1 | . | . | 99.2 | -1.2 | . | i | 1.03
CCn1nnnc1SCC(=O)NC1Cc2ccccc2C1 | . | . | 99.1 | . | . | i | 1.11
Cc1cc(NC(=O)c2ccc(S(=O)(=O)N3CCOCC3)cc2)nc2c1c(=O)oc1ccccc12 | . | . | 104.3 | -8.2 | -0.4 | . | .
COc1cc2c(cc1NC(=O)C(C)Sc1ccc(C)cc1)oc1ccccc12 (stereo unspecified) | . | . | 105.3 | 0.0 | 2.2 | i | 1.03
O=C(Cn1ncc2ccccc21)N1CCc2ccccc21 | 28.6 | 105.1 | 108.2 | 2.0 | -1.2 | i | 0.96
O=c1oc2ccccc2c(Nc2ccc3ccccc3c2)c1[N+](=O)[O-] | . | . | 100.2 | -11.2 | -1.3 | i | 0.7
O=c1[nH]c(SCc2c(Cl)cccc2Cl)nc2ccccc12 | -41.2 | 116.0 | 104.7 | -1.2 | . | i | 0.95
Cc1cc(C)n2c(SCC(=O)Nc3ccc(F)cc3F)nnc2n1 | -29.7 | 69.0 | 107.2 | -0.7 | . | i | 0.95
CCn1c(SCc2nc3ccccc3c(=O)[nH]2)nnc1C(C)NC(=O)c1ccccc1 (stereo unspecified) | . | . | 59.1 | -5.1 | . | i | 0.93
CC(CSc1nnnn1-c1ccccc1)Cn1c(N2CCN(C)CC2)nc2c1c(=O)[nH]c(=O)n2C (stereo unspecified) | 22.2 | 76.9 | 119.0 | 1.0 | . | i | 0.92
Cc1nn(Cc2ccc(C(=O)Nc3ccccc3C(F)(F)F)o2)c(C)c1Br | 11.4 | 100.0 | 112.8 | 7.4 | -2.4 | i | 0.75
O=C(c1ccc(Cn2c(=O)[nH]c3ccccc3c2=O)cc1)N1CCN(c2ccc(Cl)cc2)CC1 | -81.8 | 90.6 | 110.0 | -1.9 | -0.1 | i | 0.87
CC(=O)Nc1ccc(OC(=O)c2cccnc2)cc1 | -2.6 | 169.4 | 107.7 | -14.4 | 0.3 | i | 1.06
COc1ccc(/C=C/c2nnc(NC(C)=O)s2)cc1 | . | . | 143.7 | . | . | i | 0.97

3 of the compounds above, with values under each structure:
Value order – INS promoter inh	INS promoter inh cell count	RGS16-Gao HTS	PKD1 kinase inh	GALR2 agonist	HSV augment	HSV augment primary fold
- CC1C(=O)CCN(C(C)(C)C)C1C (stereo unspecified)
 : -5.4	100.0	104.5	-2.4	0.9	i	1
- C/C(CCN1CCCCc2nc(C)c(C)cc21)=N\O[C@H](C)c1cn([C@H](CO)Cc2ccccc2)nn1
 : -23.8	88.8	100.8	-0.8	-1.2	.	.
- CCn1c(SCc2nc3ccccc3c(=O)[nH]2)nnc1C(C)NC(=O)c1ccccc1 (stereo unspecified)
 : .	.	59.1	-5.1	.	i	0.93

Further structures.
SMILES | INS promoter inh | INS promoter inh cell count | RGS16-Gao HTS | PKD1 kinase inh | GALR2 agonist | HSV augment | HSV augment primary fold
NC(=O)C1=C[C@H](C2CCCCC2)C[C@H](OCc2ccc(CO)cc2)O1 | . | . | 107.5 | -0.5 | . | i | 0.77
CCOC(=O)N1CCC(NC(=O)c2oc3c(c2C)-c2[nH]ncc2CC3)CC1 | 35.2 | 130.4 | 97.5 | 0.4 | -3.1 | . | .
O=C(CCn1c(=S)[nH]c2ccccc2c1=O)NCCSCc1ccccc1 | 21.4 | 143.6 | 106.1 | -2.0 | . | i | 0.86
CC(C)[C@H](NC(=O)c1ccccc1)C(=O)OCC(=O)/C=C1/N(C)c2ccccc2C1(C)C | . | . | 97.8 | -8.9 | -1.9 | i | 0.8
COc1cccc(-c2nc(CS(=O)CC(=O)NCc3ccccc3Cl)c(C)o2)c1 (stereo unspecified) | . | . | 100.7 | -1.4 | -2.4 | i | 0.97
COCc1cc(C)nc(N/N=C/c2ccc(-c3cc(C(=O)O)ccc3Cl)o2)c1C#N | 11.1 | 127.8 | 99.9 | 5.3 | . | i | 0.99
Clc1ccc(Cc2nn3c(Cn4nnc5ccccc54)nnc3s2)cc1 | . | . | 101.3 | -13.5 | -0.9 | i | 0.78
Cc1cc(C)nc(NC(=NCCc2c[nH]c3ccccc23)NC(=O)Nc2ccccc2)n1 | . | . | 98.5 | -0.4 | -0.5 | i | 0.83
O=C(CSc1nc2ccc(Nc3nc(N4CCOCC4)nc(N4CCOCC4)n3)cc2s1)N1CCOCC1 | 22.9 | 181.2 | 102.2 | -1.6 | 1.6 | i | 0.72
COC(=O)CNC(c1ccccc1Cl)c1cc(Br)ccc1NS(=O)(=O)c1ccc(C)cc1 (stereo unspecified) | 8.3 | 157.3 | 115.3 | -1.9 | 0.1 | i | 0.89
COC(=O)c1[nH]c2ccc(C)cc2c1NC(=O)CN1CCN(c2ccccc2)CC1 | . | . | 102.3 | -5.9 | -2.7 | i | 0.85

3 compounds from above, ordered by formula weight, low to high:
SMILES | INS promoter inh | INS promoter inh cell count | RGS16-Gao HTS | PKD1 kinase inh | GALR2 agonist | HSV augment | HSV augment primary fold
Cc1cccc(C(=O)NC2CC(C)(C)NC(C)(C)C2)c1 | . | . | 112.6 | -8.2 | 3.4 | i | 0.71
CC(=O)Nc1ccc(N2CCN(Cc3ccccc3F)CC2)cc1 | -10.0 | 154.6 | 101.2 | -3.3 | -2.8 | i | 0.63
CCCCCOc1ccc(C(=O)NCCC(=O)NCCCC(=O)OCC)cc1 | . | . | 97.2 | . | . | i | 0.55

Screening data as filed in PubChem BioAssay.
